# Assay outcomes from PubChem.
# StopGo FLuc: Primary qHTS Assay for Foot and Mouth Disease Virus Antivirals against NCGC Sytravon and CBC Compound Libraries: Firefly Luciferase Signal; HEK cells with a luciferase reporter of 2A StopGo recoding; Potency, µM (series often up to 57.5 µM), for the others: top-dose signal change, negative = less light; 120,000 tested, 0.23% active; active = well fitted falling curve with a large enough effect; inconclusive = small, poorly fitted or top-dose-only effect; inactive = no such curve, though single readings can be large or run the other way; further: nearly all actives have a fitted effect of over 60% in size; overnight with compound
# StopGo RLuc: Primary qHTS Assay for Foot and Mouth Disease Virus Antivirals against NCGC Sytravon and CBC Compound Libraries: Renilla Luciferase Signal. HEK cells with a luciferase reporter of 2A StopGo recoding. Potency, µM (highest dose often 57.5 µM), inactives show top-dose signal change, negative = less light. 120,000 tested, 0.32% active; active means well fitted falling curve with a large enough effect; inconclusive means small, poorly fitted or top-dose-only effect; inactive means no such curve, though single readings can be large or run the other way; further: nearly all actives have a fitted effect of over 55% in size; overnight with compound
# Starred values were filed as active, the others as inactive; ? = inconclusive; & = joins results of further samples; [ ] = another dose, or the depositor's remark. On the % scale 0 is the no-effect control and ±100 the full control effect; potency means the concentration at half of the fitted maximal effect.
# Sample of the layout, 4 compounds:
SMILES,StopGo FLuc,StopGo RLuc
Brc1ccc(-c2noc(-c3ccccc3Br)n2)o1,56%[activator],-2%
COC(=O)c1cc(NC(=O)c2ccccc2OC)c(F)cc1F,44%[activator],-6%
COc1cc(C2CC(=O)N(CC(=O)Nc3ccccc3C)c3ccccc3S2)cc(OC)c1OC (stereo unspecified),-14%,4%
CC(Sc1nc(NC2CC2)c2ccccc2n1)C(=O)N1CCCC1 (stereo unspecified),-9%,1%

# Results, previewed entries included:
SMILES,StopGo FLuc,StopGo RLuc
Brc1ccc(-c2noc(-c3ccccc3Br)n2)o1,56%[activator],-2%
COC(=O)c1cc(NC(=O)c2ccccc2OC)c(F)cc1F,44%[activator],-6%
COc1cc(C2CC(=O)N(CC(=O)Nc3ccccc3C)c3ccccc3S2)cc(OC)c1OC (stereo unspecified),-14%,4%
CC(Sc1nc(NC2CC2)c2ccccc2n1)C(=O)N1CCCC1 (stereo unspecified),-9%,1%
O=C(CN1CCN(CC(=O)N2CCC(Cc3ccccc3)CC2)CC1)Nc1ccccc1Cl,-17%,?
Cc1ccc(-c2cc(-c3ccc(C)cc3)[nH]n2)cc1,308%[activator],0%
CC1CCN(S(=O)(=O)c2nnc(NC(=O)c3cccc(Cl)c3)s2)CC1,21%,-12%
COCCNC(=O)CCCn1c(SCC(=O)NCc2ccc(C)cc2)nc2c(sc3ccccc32)c1=O,-9%,-11%
CCC(=O)N1CCc2cc(CNS(=O)(=O)c3ccc(NC(=O)CC(C)C)cc3)ccc21,-29%,11%
Fc1ccc(CNCCOc2ccccn2)cc1,0%,15%
O=C(OCc1nc2ccccc2o1)c1ccccc1F,-4%,4%
Cc1ccc2nc(-c3ccc(Cl)s3)cc(C(=O)O)c2c1,168%&120%[activator],7%&-16%
COc1ccc(Nc2c(-c3ccc(N4CCOCC4)cc3)nc3ncccn23)cc1OC,20%,-1%
CCCCn1nc(C(=O)Nc2cccc(S(=O)(=O)NC3=NCCC3)c2)c2ccccc2c1=O,54%[activator],406%[activator]
Cc1ccc(Cn2c(CCCNC(=O)C3CCCCC3)nc3ccccc32)cc1,-8%,16%
O=C(c1ccco1)n1nc(-c2ccccc2)nc1NCc1ccccc1Cl,-12%,1%
CC(Sc1nc2cc(S(=O)(=O)N3CCCCC3)ccc2o1)C(=O)Nc1cccc(Cl)c1 (stereo unspecified),28%,68%[activator]
CCCOc1ccccc1NC(=O)c1cc2cccc(OC)c2oc1=O,172%[activator],-5%
CC(C)(C)c1ccccc1NC(=O)c1cnn2c(C(F)F)cc(-c3ccccc3)nc12,-16%,-8%
Cc1cc(OCC(=O)Nc2ccc(-c3nc4cc(Cl)ccc4o3)cc2)cc(C)c1Cl,-7%,-9%
Fc1ccc2c(c1)-c1c(cnc3cc(-c4ccc(Cl)cc4)nn13)CO2,14%,-5%
COc1ccc(Cl)cc1NC(=O)c1cc2ccccn2n1,57%[activator],12%
OCc1cc(-c2ccccc2)n[nH]1,11%,0%
CCCC(=O)Nc1cccc(C(=O)OC/C(=N\O)c2ccc(OC)cc2)c1,0%,24%
CCCCc1c(C)[nH]n(-c2nc(C)c(C(=O)Nc3cccc(OC)c3)s2)c1=O,31%[activator],4%
CN(C)CCCN(CC1CCOC(C)(C)C1)C(=O)c1ccco1 (stereo unspecified),7%,8%
CSc1nnc(NC(=O)c2cc(=O)c3cc(Cl)c(C)cc3o2)s1,-1%,-11%
CCNc1c(NC(=O)c2cccc(Cl)c2)c(=O)oc2ccccc12,-2%,2%
CC(C)C(=O)Nc1ccc(-c2csc(NCc3ccco3)n2)cc1,193%[activator],59%[activator]
Cc1ccc(-c2nnc(SCC(=O)N3CCC(C)CC3)n2N)cc1,11%,-4%
CCOC(=O)c1c(C)oc2ncnc(Nc3cc(C)cc(C)c3)c12,-1%,-8%
CC(C)Cn1c(C2CC(=O)N(c3ccccc3Cl)C2)nc2ccccc21 (stereo unspecified),-18%,-9%
CC(OC(=O)C1CCN(S(=O)(=O)c2ccc(C(C)(C)C)cc2)CC1)C(=O)N(C)C1CCCCC1 (stereo unspecified),8%,0%
CCOC(=O)N1CCN(C(=O)C[C@H]2C[C@@]3(C(=O)OC)C(=C[C@H](C4CCCC4)O[C@@H]3C)N(Cc3cccc4ccccc34)C2=O)CC1,?,?
Cc1cccc(C)c1NC(=O)CSc1nc2nc(C)c(Br)cc2[nH]1,-2%,-11%
CN(C)c1ccc(C(CNS(=O)(=O)c2cc(F)ccc2F)N2CCOCC2)cc1 (stereo unspecified),2%,10%
CCN(CC)C(=O)c1sc2c(c1C)c(=O)n(-c1ccc(OC)cc1OC)c(=O)n2Cc1cc(C)ccc1C,-25%,-25%
O=[N+]([O-])c1cc(S(=O)(=O)Nc2ccccc2)ccc1N/N=C/c1cn(-c2ccccc2)nc1-c1cccs1,1%,17%
CCN(CC)S(=O)(=O)c1ccc2c(c1)cc(C(=O)NCCc1ccco1)n2C,7%,5%
O=C(O)CSCc1ccc(Cl)c(Cl)c1,24%,-4%

# Pulled by compound from the entries so far:
SMILES,StopGo FLuc,StopGo RLuc
COc1ccc(Cl)cc1NC(=O)c1cc2ccccn2n1,57%[activator],12%
Cc1cccc(C)c1NC(=O)CSc1nc2nc(C)c(Br)cc2[nH]1,-2%,-11%
CC(C)Cn1c(C2CC(=O)N(c3ccccc3Cl)C2)nc2ccccc21 (stereo unspecified),-18%,-9%

# Going on with the list.
SMILES,StopGo FLuc,StopGo RLuc
CCn1c(SCC(=O)Nc2cccc(Cl)c2)nnc1-c1nonc1NC(C)=O,7%,-11%
COc1ccc(Cl)cc1NC(=O)CSc1nncn2c1cc1oc(C)cc12,-8%,-15%
O=C(Cn1c(SCC(=O)Nc2ccc(F)cc2)nc2ccccc21)NCc1ccc(Cl)cc1,1%,15%
CCOc1ccc(OCCC(=O)OCC(=O)Nc2c(C)cc(C)cc2Cl)cc1,23%,6%
CCCSc1ncc(Cl)c(C(=O)Nc2ccc(S(=O)(=O)N3CCCC(C)C3)cc2)n1 (stereo unspecified),?,0%
O=S(=O)(c1cccc2nsnc12)N1CCCCCC1c1cccc(F)c1 (stereo unspecified),6%,37%[activator]
COc1ccc(OC)c(C2CCCN2C(=O)CSc2n[nH]c(-c3ccccc3)n2)c1 (stereo unspecified),15%,74%[activator]
CCNC(=O)CN(CC)C(=O)c1n[nH]c(=O)c2ccccc12,-9%,-13%
Oc1ccc(N=CCCc2ccccc2)cc1,63%[activator],5%
Cc1ccc(N2CCN(C(=O)c3cc4ccccc4oc3=O)CC2)cc1Cl,47%[activator],-4%
CCN(C(=O)c1c(C)oc2ncnc(N3CCCCC3)c12)c1cc(C)ccc1C,-1%,-2%
O=C(CN1CCN(Cc2ccccc2F)C1=O)NCc1ccccc1,59%[activator],21%
O=C(Cn1c(=O)oc2cc(S(=O)(=O)NCc3ccccc3)ccc21)N(CCO)Cc1ccccc1,-11%,222%[activator]
Cc1ccc(N2CC(c3nc(-c4ccccc4C)no3)CC2=O)cc1 (stereo unspecified),15%,19%
COc1ccc(Cn2c(=O)n(-c3ccccc3C)c(=O)c3c4c(sc32)CN(C(C)=O)CC4)cc1,20%,37%[activator]
CCNC(=O)NC(=O)C(C)Sc1cc(C)c2cccc(C)c2n1 (stereo unspecified),21%,21%
O=C(Nc1ccc(F)cc1)c1cc2cc(F)ccc2[nH]1,0%,19%
COc1ccc(OC)c(S(=O)(=O)NCCS(=O)(=O)N2CCN(c3ccccc3F)CC2)c1,-10%,197%[activator]
CCOc1ccc(NC(=O)c2cccn(Cc3cccc(Cl)c3)c2=O)cc1,19%,-2%
CN(C)CCNc1nnnc2c1sc1nc(N3CCOCC3)c3c(c12)CC(C)(C)OC3,-2%,-12%
CC(=O)c1ccc(NC(=O)c2ncn(-c3ccccc3)n2)cc1,125%[activator],-4%
O=C(CSC12CC3CC(CC(C3)C1)C2)NC1CC1,6%,11%
CCCCN(C)Cc1ccc(OCc2ccccc2)c(OC)c1,72%[activator],-3%[1.06 µM]
CC1CC1C(=O)NCCC(=O)Nc1ccc(C#N)cc1 (stereo unspecified),6%,4%
CCCCOc1ccc(NC(=O)C(C)Sc2ncnc3nc[nH]c23)cc1 (stereo unspecified),-4%,-10%
O=C(Cn1cccc1C(=O)c1ccccc1)NCc1ccc(Cl)cc1,38%[activator],0%
CC(=O)c1ccc(NS(=O)(=O)c2ccc(-c3cc(C)no3)s2)cc1,-4%,110%[activator]
CCc1ccccc1NC(=O)CSc1nc(-c2cccc(Cl)c2)nc2c1Cc1c(CO)cnc(C)c1O2,-9%,-6%
Cc1ccc(-c2nsc(NC(=O)c3oc4ccccc4c3C)n2)s1,0%,-2%
COc1ccccc1NC(=O)COC(=O)c1cc(C)nc2ccccc12,-6%,-17%
CCOc1ccc(-c2cc(C(=O)NCCOC)c3ccccc3n2)cc1,0%,-19%
O=C(c1ccc(-n2cnnn2)cc1)N(CCc1cccs1)Cc1cccs1,-16%,47%[activator]
O=C(CCc1ncc(-c2ccccc2F)o1)NCc1ccc2c(c1)OCO2,0%,-2%
COC(=O)c1ccc(COC(=O)Cc2c(Cl)cccc2Cl)cc1,135%[activator],4%
CC(C)c1ccc(NC(=O)Cc2ccc(NC(=O)N3CCCCc4ccccc43)cc2)cc1,-2%,-6%
O=C(CSc1oc(-c2ccccc2)nc1S(=O)(=O)c1ccc(Br)cc1)c1ccccc1,-4%,136%[activator]
CCOc1ccc(C(=O)Nc2cc(-c3nc4ccccc4o3)ccc2C)cc1[N+](=O)[O-],7%,-7%
CN(Cc1ccccc1)C1CCN(Cc2ccc(Cl)cc2)CC1,2%,-3%
COc1ccc(Oc2ncnc3c2oc2ccccc23)cc1,49%[activator],-4%
Cc1ccc(C(=O)N2CCN(c3oc(-c4cccs4)nc3C#N)CC2)cc1,3%,0%

# Entries of single compounds from above. Order of values: StopGo FLuc	StopGo RLuc
# COC(=O)c1ccc(COC(=O)Cc2c(Cl)cccc2Cl)cc1 as listed: 135%[activator]	4%
# O=C(CCc1ncc(-c2ccccc2F)o1)NCc1ccc2c(c1)OCO2 as listed: 0%	-2%

# The listing continues.
SMILES,StopGo FLuc,StopGo RLuc
Cc1cc(C)c(C(=O)NC2CC2)c(C)c1,22%,9%
Cc1ccc2[nH]c(=O)c(CN(C(=O)c3cccnc3)C3CCCCC3)cc2c1,23%,?
COc1cccc(C(=O)C(C#N)C(=O)Nc2ccccc2)c1 (stereo unspecified),264%[activator],-45%
O=C(Nc1ccc(F)cc1F)C1CCCN1S(=O)(=O)c1cccc2nsnc12 (stereo unspecified),-16%,-5%
Cc1ccccc1NC(=O)CCc1ncc(-c2c(F)cccc2F)o1,7%,-6%
O=C(O)c1sccc1-c1ccccc1,3%,8%
COc1cc(OC)c(NC(=O)CCc2ncc(-c3ccccc3)o2)cc1Cl,32%[activator],6%
CC(C)(C)c1ccc(C(CNC(=O)c2cc3ccccc3oc2=O)N2CCCC2)cc1 (stereo unspecified),30%,-10%
Cc1cc(NC(=O)c2cccn(Cc3cccc(Cl)c3)c2=O)no1,-11%,-5%
O=C(Cn1c(SCCOc2ccccc2Cl)nc2ccccc21)N1CCCCC1,2%,0%
COc1ccc(CNC(=O)c2cnc3ccc(C)cn3c2=O)cc1,-11%,-10%
CCOc1cc(CNC(=O)c2ccc(NC(=O)c3nsc4ccccc34)cc2)ccc1OC,?,-14%
O=C(NC(c1ccccc1)c1cc2ccccc2o1)C1CCC1 (stereo unspecified),-5%,21%
Cc1cc(NS(=O)(=O)c2ccc(NC(=O)COc3c(C)cc(Br)cc3C)cc2)no1,-32%,-10%
COc1ccccc1C1SCC(=O)Nc2c1c(C)nn2C (stereo unspecified),4%,-10%
CC1CCN(S(=O)(=O)c2ccc3nc(NCc4ccccc4)ccc3c2)CC1,?,70%[activator]
O=C1CCCCCN1CCNc1nc2ccccc2o1,23%,-6%
Cc1ccc(CN(CCc2ccccc2)Cc2ccccc2)o1,89%[activator],31%
COC(=O)c1cc(NC(=O)c2cnccn2)cc(C(=O)OC)c1,-4%,-4%
Cn1cc(S(=O)(=O)c2ccccc2)c(=O)c2cc(F)c(N3CCCCCC3)cc21,-5%,8%
CCOC(=O)CSC1=C(C#N)C(c2ccccc2C)C2=C(CCCC2=O)N1 (stereo unspecified),-3%,1%
CCc1nnc2c(NCc3cccc(OC)c3)nc3ccccc3n12,3%,-6%
CC(C)n1nc(C(=O)Oc2cc(Cl)ccc2Cl)c2ccccc2c1=O,0%,-9%
O=C(COC(=O)c1cc(-c2cccs2)nc2ccccc12)c1ccc(F)cc1,11%,-9%
O=C(Cn1c(=O)n2nc(-c3cccc(F)c3)nc2c2ccccc21)N1CCN(c2ccccc2F)CC1,4%,8%
CCN1CCN(CCNC(=O)c2cc(-c3ccc(NC(C)=O)cc3)nc3ccccc23)CC1,50%[activator],23%
Cc1ccc(NC(=O)Cn2c(=O)c3ccccc3n3nncc23)cc1,-2%,-17%
O=C(NCC1CCN(CC(F)(F)F)C1)c1cc2ccccc2[nH]1 (stereo unspecified),65%[activator],-15%
O=C(OCc1coc(-c2ccc(F)cc2)n1)c1ccc2nccnc2c1,6%,5%
CCOC(=O)c1ccccc1NC(=O)Cn1c(=O)n(CCCC(=O)NCc2ccc3c(c2)OCO3)c(=O)c2ccccc21,-15%,-2%
Cc1ccc(CCCCCCCCCCCC(=O)O)cc1,21%,6%
CCCc1nn2c(=O)cc(COC(=O)c3ccco3)nc2s1,-3%,-9%

# This is a subset, so the mix of outcomes need not match the whole.
